Assay outcomes as filed in PubChem.
Arbovirus anti = antivirals against arbovirus infection, primary screen, cell-based, full library, 10K replicate subset | arbovirus infection cell-based antiviral screen | inhibition, % at 10 µM | hit rate 0.37% among 200,000 | AID 1251, 2008;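 active = inhibition from about 30%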;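 also: bluetongue infection of BSR cells; cell survival read as ATP light after 72 h; 0% = infected wells without compound and 100% = uninfected wells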
YopH PTP inh = YopH tyrosine phosphatase inhibitors, primary screen, biochemical, fluorescence Ex485/Em525. hit rate 0.16% among 140,000. inhibition, %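 (about 10 µM by stock and volumes)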. AID 898, 2007. YopH tyrosine phosphatase [Yersinia enterocolitica];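 active = inhibition of 50% or more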;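 also: controls were vehicle for no effect and minimum signal wells for full effect; inactives centre near -20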
RecA splice inh = Mtb RecA intein splicing inhibitors, primary screen, biochemical, fluorescence, HTS; Protein RecA (Mycobacterium tuberculosis (strain ATCC 25618 / H37Rv)), P9WHJ3; cell-free RecA intein splicing; inhibition, %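 (about 9 µM by stock and volumes)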; hit rate 0.75% among 290,000; AID 2221, 2009; in the data active = inhibition above about 30%; inconclusive = no clear call, values can overlap the other calls;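 also: 0% = vehicle wells and 100% = reference inhibitor control wells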
Target sequence (P9WHJ3 whole entry, looked up, canonical isoform): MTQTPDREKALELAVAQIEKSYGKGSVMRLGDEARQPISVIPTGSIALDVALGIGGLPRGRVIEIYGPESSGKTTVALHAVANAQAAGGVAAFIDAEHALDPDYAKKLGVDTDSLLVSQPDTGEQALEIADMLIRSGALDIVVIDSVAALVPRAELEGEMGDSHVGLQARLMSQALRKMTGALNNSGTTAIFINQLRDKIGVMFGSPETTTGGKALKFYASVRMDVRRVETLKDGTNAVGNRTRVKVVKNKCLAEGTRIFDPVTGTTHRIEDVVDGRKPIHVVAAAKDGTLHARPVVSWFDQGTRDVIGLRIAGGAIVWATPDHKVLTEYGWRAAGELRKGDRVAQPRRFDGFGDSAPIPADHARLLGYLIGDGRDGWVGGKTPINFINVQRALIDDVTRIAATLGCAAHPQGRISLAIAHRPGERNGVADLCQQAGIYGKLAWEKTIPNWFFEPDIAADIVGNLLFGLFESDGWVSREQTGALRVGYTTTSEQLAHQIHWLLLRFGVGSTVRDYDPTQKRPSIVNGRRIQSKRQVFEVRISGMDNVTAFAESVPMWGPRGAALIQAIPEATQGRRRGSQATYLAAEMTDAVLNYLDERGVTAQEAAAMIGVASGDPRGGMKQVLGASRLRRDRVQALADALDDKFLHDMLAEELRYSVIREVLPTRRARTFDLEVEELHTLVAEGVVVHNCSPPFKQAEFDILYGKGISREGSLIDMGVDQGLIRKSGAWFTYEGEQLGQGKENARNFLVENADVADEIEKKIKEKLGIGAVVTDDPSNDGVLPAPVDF
Mtb growth = M. tuberculosis H37Rv growth inhibitors, H37Rv strain (AID 1626); M. tuberculosis H37Rv growth inhibition; higher % means a stronger effect; one-dose inhibition, % at 10 µM; IC50 in µM for titrated hits; hit rate 0.95% among 220,000;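 active = confirmed in a dose series; inconclusive = inhibition above 80% but not taken into the dose series; inactive = below 80% or under 30% at every dose of the series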;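 also: bacteria incubated seven days before Alamar blue readout; 0% = bacteria only wells and 100% = bacteria with antibiotic wells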
Mtb bLac sens = beta-lactam sensitization of Mtb H37Rv, H37Rv; M. tuberculosis H37Rv growth with meropenem, percent inhibition; hits of this screen are not shown here; inhibition, % at 25 µM; hit rate 0.27% among 330,000;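 active = about 74% or more and at least 40 points above the plate without the antibiotic, then above 30% in a dose series; inconclusive = first-round hits that could not be retested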;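 also: growth measured after seven days incubation then overnight dye step; 0% = bacteria only wells and 100% = bacteria with antibiotic; twin plates without the antibiotic show which effects depend on it; some results filed as inactive read as strong as hits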
Arbovirus anti repeat = recorded beside Arbovirus anti, whose call it bears; inhibition, %; measured here: 10K subset replicate screen; many hits read low in the repeat;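 first of two repeat runs on a subset; 0% = infected and 100% = uninfected wells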
An asterisk follows results filed as active; ? = inconclusive; · = no result given. An excerpt; the hit share may differ from the screen's.

SMILES | Arbovirus anti | YopH PTP inh | RecA splice inh | Mtb growth | Mtb bLac sens | others
Cc1c(C(=O)NCc2ccccc2)cnn1-c1ccccc1 | -4 | -2 | -0.4 | 1% | -10
COCCOC(=O)c1[nH]c2c(c1C)C(=O)CC(c1ccc(OC)cc1)C2 (stereo unspecified) | · | · | -0.3 | · | -3
Oc1ccc(Br)cc1-c1nc2cnccn2c1NC1CCCCC1 | 11 | -22 | 2.2 | 15% | 15
COc1cccc(-c2nc3n(n2)C(c2ccc4c(c2)OCO4)C(C(N)=O)=C(C)N3)c1 (stereo unspecified) | 4 | -11 | -2.9 | -6% | 1
CN1CC(=O)N(CC(=O)NCCc2ccc(F)cc2)c2ccccc2C1=O | 8 | -9 | · | -1% | -10
CCc1cc(CNC(=O)c2ccc(OC)c(OC3CCN(C(C)C)CC3)c2)on1 | · | · | -1.9 | · | -4
Cc1ccc(S(=O)(=O)NCCCCCC(=O)Nc2nccs2)cc1 | 3 | 4 | 1.9 | 9% | 75
O=C(O)c1ccc(Cn2cc(/C=C\[N+](=O)[O-])c3ccccc32)o1 | · | · | 5.2 | · | -2
CC1(C)NC(=O)N(CC(=O)OCC(=O)c2ccc(F)cc2)C1=O | · | · | 1.2 | · | -7
Cn1c(N)c(C(=O)Nc2ccc3ccccc3c2)sc1=S | -11 | -1 | 0.6 | · | 21
CCC(C)(C#CCN1CCCCC1)OC(C)=O (stereo unspecified) | -1 | · | -0.3 | -2% | -5
CNc1ccccc1NC(=O)C1CCCN1C(=O)OCc1ccccc1 (stereo unspecified) | · | · | -1.5 | · | 82
CCCC12CN3CC(C)(CN(C1)C3c1ccc(OC)cc1)C2=O (stereo unspecified) | 0 | -24 | 0.2 | -1% | 29
CCN(CC)c1ccc(N=Cc2ccccc2[N+](=O)[O-])cc1 | 1 | -23 | -0.8 | 15% | -8
CSCCC(NC(=O)OC(C)(C)C)C(=O)NC(CC(C)C)C(N)=O (stereo unspecified) | 2 | 11 | 4.4 | -2% | 1
Nc1c(N)c2ccccc2oc1=O | 1 | -11 | -1.8 | 1% | 1
COc1nonc1NC(=O)CSc1nc2ccccc2[nH]1 | -6 | -41 | -2.0 | -2% | -9
CCN1C(=O)N[C@@H](c2ccc(Br)cc2)C(C(=O)OC)=C1C | 8 | -29 | · | -1% | -8
N#CCSc1nnc(SCC#N)s1 | · | · | 11 | -8% | -12
CCN(CC)CCCNC(=O)c1cc(-c2cccc(Cl)c2)on1 | -12 | -37 | -0.1 | -8% | -4

Some of these compounds in order of SMILES length, highest first.
SMILES | Arbovirus anti | YopH PTP inh | RecA splice inh | Mtb growth | Mtb bLac sens | others
CSCCC(NC(=O)OC(C)(C)C)C(=O)NC(CC(C)C)C(N)=O (stereo unspecified) | 2 | 11 | 4.4 | -2% | 1
CCN(CC)CCCNC(=O)c1cc(-c2cccc(Cl)c2)on1 | -12 | -37 | -0.1 | -8% | -4
Nc1c(N)c2ccccc2oc1=O | 1 | -11 | -1.8 | 1% | 1

The results go on:
SMILES | Arbovirus anti | YopH PTP inh | RecA splice inh | Mtb growth | Mtb bLac sens | others
CCn1c(SCC(=O)Nc2sc3c(c2C(N)=O)CCC(C)C3)nnc1-c1ccco1 (stereo unspecified) | -17 | 9 | -1.9 | 5% | 29
O=c1[nH]c(=S)[nH]c2c1C(c1ccc(Br)cc1)c1c([nH]c(=S)[nH]c1=O)O2 | · | · | -1.7 | · | -5
CC1=C(C(=O)Nc2ccccc2F)C(c2ccsc2)C2=C(CC(c3ccccc3)CC2=O)N1 (stereo unspecified) | -24 | -18 | -8.0 | 37% | 9
O=C(Nc1ccc(Cc2ccncc2)cc1)C1CC1 | -3 | -3 | -2.0 | 8% | 37
COc1cccc(CN2CCN(C(=O)c3cc(-c4cccnc4)nc4ccc(C)cc34)CC2)c1 | -29 | · | -0.5 | 21% | 75
Cc1ccc(C(=O)Cn2c(=N)n(N)c3ccccc32)cc1 | · | · | -0.5 | · | -2
O=C1CCC(C(=O)Nc2cc(C(F)(F)F)ccc2-n2cncn2)=NN1 | · | · | -0.9 | · | ?
CC(/C=C/c1ccccc1)=N/NC(=O)c1nc2nc(C)cc(C)n2n1 | 11 | · | -6.0 | -9% | -4
Cc1ccc(-c2csc(NC(=O)CCCc3cccs3)n2)cc1 | 4 | -15 | -0.4 | -5% | -4
CN(C)S(=O)(=O)N1CCC(Oc2ccc(C(=O)NC3CCCCC3)cc2)CC1 | -7 | · | 0.8 | -6% | 6

In the list so far, three have bromine:
SMILES | Arbovirus anti | YopH PTP inh | RecA splice inh | Mtb growth | Mtb bLac sens | others
Oc1ccc(Br)cc1-c1nc2cnccn2c1NC1CCCCC1 | 11 | -22 | 2.2 | 15% | 15
CCN1C(=O)N[C@@H](c2ccc(Br)cc2)C(C(=O)OC)=C1C | 8 | -29 | · | -1% | -8
O=c1[nH]c(=S)[nH]c2c1C(c1ccc(Br)cc1)c1c([nH]c(=S)[nH]c1=O)O2 | · | · | -1.7 | · | -5

Next part
SMILES | Arbovirus anti | YopH PTP inh | RecA splice inh | Mtb growth | Mtb bLac sens | others
Cc1nc2ncnn2c(C)c1Cc1ccc(Cl)cc1F | 1 | -8 | 0.0 | · | -3 | Arbovirus anti repeat=-1
CCc1c(C(=O)N/N=C/c2cn[nH]c2-c2ccc(F)cc2)csc1C | 1 | -23 | 1.6 | -9% | -4
CC(OC(=O)C1CSC2(c3ccc(F)cc3)CCC(=O)N12)C(=O)NC(N)=O (stereo unspecified) | 5 | · | 0.2 | 1% | 4
CC(=O)c1cccc(NC(=O)CSCc2ccc(Br)cc2)c1 | 0 | -3 | 2.6 | 2% | -8
Cc1ccc(N(CC(=O)Nc2ccc3c(c2)OCCO3)S(=O)(=O)c2c(C)n[nH]c2C)cc1 | -8 | -21 | -2.0 | -4% | -9
O=C(NCCN1CCOCC1)c1cc(Sc2ccccc2Cl)nc2ccccc12 | -1 | -16 | 0.5 | 7% | 4
O=C(CSc1nnc(CNC(=O)c2cccs2)o1)Nc1ccccc1C(F)(F)F | · | · | -4.5 | · | 6
Nn1c(SCc2cc([N+](=O)[O-])cc3c2OCOC3)nnc1-c1cccnc1 | 0 | · | -0.6 | 3% | 2
CC1=CC(C)(C)N2C(=O)C3(C(C#N)=C(N)OC4=C3C(=O)CC(C)(C)C4)c3cccc1c32 (stereo unspecified) | 10 | -41 | 2.0 | -2% | ·
CC1(C)CC(=O)C2=C(C1)Nc1ccccc1NC2c1ccc2c(c1)OCO2 (stereo unspecified) | 2 | -57 | -2.1 | -3% | -9

The final 4 records of the section above come first, to join the parts.
SMILES | Arbovirus anti | YopH PTP inh | RecA splice inh | Mtb growth | Mtb bLac sens | others
O=C(CSc1nnc(CNC(=O)c2cccs2)o1)Nc1ccccc1C(F)(F)F | · | · | -4.5 | · | 6
Nn1c(SCc2cc([N+](=O)[O-])cc3c2OCOC3)nnc1-c1cccnc1 | 0 | · | -0.6 | 3% | 2
CC1=CC(C)(C)N2C(=O)C3(C(C#N)=C(N)OC4=C3C(=O)CC(C)(C)C4)c3cccc1c32 (stereo unspecified) | 10 | -41 | 2.0 | -2% | ·
CC1(C)CC(=O)C2=C(C1)Nc1ccccc1NC2c1ccc2c(c1)OCO2 (stereo unspecified) | 2 | -57 | -2.1 | -3% | -9
CN(CC(=O)N1CCCC1)S(=O)(=O)c1ccc2ccccc2c1 | 8 | · | · | -6% | -7
CCOC(=O)c1cc(CC)sc1NC(=O)COC(=O)c1ccccn1 | · | · | 1.1 | · | -3
Cc1ncc(CO)c2c1Oc1nc(-c3ccccc3)nc(SCC(=O)Nc3cccc(O)c3)c1C2 | · | · | 1.5 | · | 6
Cc1cccc(NCCC(=O)c2ccc(Br)cc2)c1 | 2 | -32 | 2.9 | 17% | 96
Cc1ccccc1/C=N/NC(=O)CSc1nc2ccccc2o1 | 2 | -20 | 1.8 | 0% | 0
COC(=O)c1cccc(NC(=S)N2CCN(c3ccccc3F)CC2)c1 | 10 | · | -0.5 | 9% | -8
O=C1CCC/C1=C\Nc1ccc(Cl)c([N+](=O)[O-])c1 | · | · | 1.3 | 0% | -9
S=C(N/N=C/c1ccc2c(c1)OCO2)NC1CC2CCC1C2 (stereo unspecified) | · | · | 0.7 | 5% | -13
COc1ccc2nc(C)cc(SCC(=O)NNC(=O)COc3ccc(C)cc3)c2c1 | 1 | -10 | 2.0 | -6% | -19
O=C(COc1ccc(Cl)cc1)N1CCN(C(=O)c2ccccc2F)CC1 | · | · | -1.4 | · | -4
C=CCn1c(C(CC)CC(C)(C)O)n[nH]c1=S (stereo unspecified) | 18 | · | -2.2 | 3% | -8
Cc1cccc(NC(=S)NC(=O)c2cccs2)n1 | -2 | -41 | -3.3 | 1% | ·
Cc1ccn(CCC(=O)N2CCCC(CCC(=O)N3CCN(c4ccccn4)CC3)C2)n1 (stereo unspecified) | 2 | · | 0.3 | -8% | -5
COc1cccc(C(C(=O)NC2CCCC2)N(C(=O)c2csnn2)C2CC2)c1 (stereo unspecified) | · | · | -1.3 | · | -2
CC(NC(=O)[C@H](C)NC(=O)N1CCn2c1nc1ccccc12)c1ccccc1 (stereo partly specified) | · | · | 2.1 | · | -6
CCCCNC(=S)N(C)/N=C/c1ccc2c(c1)OCO2 | 2 | -6 | 2.6 | 36% | 99
COc1cc(C(=O)Cc2nc3ccccc3n2C)cc(OC)c1OC | · | · | -2.1 | · | 3
CCCOc1c(Cl)cc(C(=O)NC)cc1OC | 0 | · | 0.3 | 12% | -5
CCOc1ccc(C(=O)NCC(=O)OCC(=O)N2C(C)CCCC2C)cc1 (stereo unspecified) | 8 | -2 | -0.1 | 2% | -5
COC(=O)c1cccc(NC2CC(=O)N(c3ccc(OC)c(OC)c3)C2=O)c1 (stereo unspecified) | 1 | -16 | -3.1 | -10% | -2
Nc1ccccc1SC1CC(=O)N(c2ccc3c(c2)OCO3)C1=O (stereo unspecified) | · | · | -0.4 | -3% | 7
COC(=O)C1=C(C)NC(=O)CC1c1ccccc1F (stereo unspecified) | 3 | -40 | -0.3 | 8% | -4
CCOC(=O)c1ccc(NC(=S)N(CCN(C)C)Cc2cccs2)cc1 | -3 | · | -0.5 | 19% | -2
CCOc1ccc(N(C)C(=O)CCc2nnc3ccc(N4CCCC4)nn23)cc1 | · | · | 1.5 | · | 4
COc1ccc(-c2[nH]ncc2C2N=C(N)Nc3nc4ccccc4n32)cc1 (stereo unspecified) | 21 | · | 1.0 | 13% | -11
O=C(CCc1ccccc1)NCc1ccc(F)cc1 | · | · | 1.3 | · | -1
CCCCc1nnc(NC(=O)C(C)Sc2nc(O)c(Cc3ccccc3)c(=O)[nH]2)s1 (stereo unspecified) | 4 | · | 3.9 | -2% | 5
CC(C)(O)C1=NOC(c2ccccc2)C1 (stereo unspecified) | -3 | 5 | -2.3 | -12% | -12
Cc1ccc(NC(=O)CC2SCCNC2=O)cc1[N+](=O)[O-] (stereo unspecified) | · | · | 1.3 | -11% | -4
Cc1cc(OC(=O)c2ccc(C(C)(C)C)cc2)c([N+](=O)[O-])c(=O)[nH]1 | · | · | -3.4 | · | 2
Cc1ccccc1NC(=O)c1ccccc1N(C)S(=O)(=O)c1ccccc1 | · | · | 1.9 | · | 4
CCOC(=O)CC1Sc2ccccc2NC1=S (stereo unspecified) | · | · | 1.9 | 16% | -6
COc1ccc(OCC(O)COc2ccc(OC)cc2)cc1 | -5 | -12 | 2.8 | 15% | 0
CN(C(=O)CCN1C(=O)C(C)(C)Nc2ccccc21)c1ccccc1 | 11 | -10 | · | 2% | -10
CC1(C)Cc2c(sc3nc4n(-c5ccccc5)c(=O)c(CCC(=O)O)nn4c(=O)c23)CO1 | · | · | -0.4 | 2% | 2
CCO[C@H]1OC(C(=O)N2CCN(C)CC2)=C[C@@H](C)[C@@H]1CCCO | 3 | · | -0.1 | -4% | -7
COc1ccc(OC)c(S(=O)(=O)n2ccnc2C(C)C)c1 | · | · | -0.1 | · | 2
O=C(COC(=O)c1ccccc1[N+](=O)[O-])NC(=O)c1ccccc1 | · | · | -0.3 | · | -1
COc1ccc(Nc2nc(N)c(C(=O)c3ccc(F)cc3)s2)cc1 | · | · | -3.9 | · | -5
O=C(C1CC1)N1CCc2cc(Br)cc(S(=O)(=O)N3CCOCC3)c21 | 0 | 2 | · | -5% | -10 | Arbovirus anti repeat=0
